Source: PubChem BioAssay (several laboratories)
PKD1 inh – PKD1 (human) kinase inhibition. hit rate 0.056% among 200,000. AID 797. Q15139. PKD1 kinase fluorescence polarization assay. inhibition, %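 (about 10 µM by stock and volumes)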;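 active = inhibition of 50% or more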;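 note: controls were vehicle for no effect and a reference inhibitor for full effect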
GALR2 agonist – agonists of human galanin receptor 2 (GALR2) | AID 803 | activation, %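 (tested at 5 µM)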 | hit rate 0.48% among 140,000 | O43603 | GALR2-expressing cells, agonist activation read-out;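 active = above mean plus 3 SD of all compounds, about 5% in these data, not always enough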;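 note: 0% = vehicle buffer wells and 100% = reference agonist at full effect; tested in CHO reporter cells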
Target sequence (O43603 whole entry, looked up): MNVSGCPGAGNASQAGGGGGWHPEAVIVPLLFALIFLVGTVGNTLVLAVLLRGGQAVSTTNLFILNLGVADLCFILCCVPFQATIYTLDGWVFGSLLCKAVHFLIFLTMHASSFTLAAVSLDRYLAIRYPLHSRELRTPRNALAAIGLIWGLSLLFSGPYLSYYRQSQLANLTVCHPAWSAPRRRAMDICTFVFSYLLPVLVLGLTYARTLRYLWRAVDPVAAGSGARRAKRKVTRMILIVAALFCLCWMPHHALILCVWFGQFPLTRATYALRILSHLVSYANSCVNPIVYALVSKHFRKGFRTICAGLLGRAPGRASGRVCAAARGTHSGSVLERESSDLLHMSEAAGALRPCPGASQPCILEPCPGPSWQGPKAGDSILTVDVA
RGS16-Gao – regulators of human RGS16-Galphao interaction; O15492+P09471; bead-based flow cytometry RGS16-Galphao binding, fluorescence; actives lie on both sides; binding response (% of control), % at 10 µM; hit rate 0.38% among 220,000;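 active = below 25% or above 175%, edge rows of some plates excepted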;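 note: Galphao activated by GDP with aluminum fluoride before binding; 100% = wells without compound and 0% = beads without RGS; some results beyond the cut were filed as inactive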
Target sequence (O15492 whole entry, looked up): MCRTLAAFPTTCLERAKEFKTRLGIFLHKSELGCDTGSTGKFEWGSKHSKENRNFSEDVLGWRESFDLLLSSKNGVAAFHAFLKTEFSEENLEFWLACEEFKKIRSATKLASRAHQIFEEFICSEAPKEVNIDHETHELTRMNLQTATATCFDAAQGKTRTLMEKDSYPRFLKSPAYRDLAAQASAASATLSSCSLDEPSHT
Target sequence (P09471 whole entry, looked up): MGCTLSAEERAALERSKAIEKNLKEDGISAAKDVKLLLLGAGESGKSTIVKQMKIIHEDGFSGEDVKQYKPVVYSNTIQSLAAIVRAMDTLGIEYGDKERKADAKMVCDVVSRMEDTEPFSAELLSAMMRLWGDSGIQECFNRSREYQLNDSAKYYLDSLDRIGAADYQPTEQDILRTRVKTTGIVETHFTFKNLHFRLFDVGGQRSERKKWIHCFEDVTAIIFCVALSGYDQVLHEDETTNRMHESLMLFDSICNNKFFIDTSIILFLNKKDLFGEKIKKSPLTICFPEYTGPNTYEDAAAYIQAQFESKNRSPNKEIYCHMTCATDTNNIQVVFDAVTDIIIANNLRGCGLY
HSV replic up – HSV replication enhancement; HSV replication augmentation in cells, fold increase; hit rate 0.005% among 220,000; AID 1956; maximum fold increase;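 active = peak rise of 1.5-fold or more in the series; inconclusive = self-fluorescent or not available for retest; tested in PC3 cells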;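 note: first round at 10 µM; read as green reporter fluorescence; hits show the peak of a series up to 25 µM; 1 = signal of infected wells without compound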
Insulin prom inh – TRM-6 insulin promoter activity inhibition. TRM-6 cells (human fetal islet line), insulin promoter-eGFP reporter, imaging; reporter expression induced with tamoxifen. inhibition, % at 2 µM. hit rate 0.9% among 130,000. AID 1273;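 active = inhibition above the mean plus 3 SD, with well images judged a real hit on visual review, cut at about 60% in these data, passing the limit was not always enough; inconclusive = inhibition over the cutoff but images rejected on review; inactive = inhibition not above the cutoff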
Insulin prom inh cell count – recorded beside Insulin prom inh, whose call it bears; normalized cell count, %; measured here: cell count, toxicity; reference of the scale not given here;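 cells exposed to compound for 48 h; stained nuclei by imaging scaled within each plate; lower means fewer cells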
HSV replic up primary fold – recorded beside HSV replic up, whose call it bears; fold increase; compound at 10 µM; measured here: primary screen fold increase 10 uM; tested in PC3 cells;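 GFP signal in the first replicate; 1 = infected wells without compound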
Numbers without * were called inactive; & = joins results of further samples.

`S=C(NCCCc1ccccc1)Nc1ccc(Cl)cc1` gave PKD1 inh -7, GALR2 agonist 0.8, RGS16-Gao 103, HSV replic up inactive, Insulin prom inh -44, Insulin prom inh cell count 85 and HSV replic up primary fold 0.96.
`CN(C)S(=O)(=O)c1cccc(C(=O)Nc2ccccc2)c1` gave PKD1 inh -3, RGS16-Gao 100, HSV replic up inactive, Insulin prom inh -7, Insulin prom inh cell count 105 and HSV replic up primary fold 0.9.
For Cc1ccc(O)c(NC(=O)c2cc3nc4c(c(C(F)(F)F)n3n2)CCc2ccccc2-4)c1 the results were PKD1 inh 0, GALR2 agonist -2.4, RGS16-Gao 106, HSV replic up inactive, Insulin prom inh -38, Insulin prom inh cell count 148 and HSV replic up primary fold 0.97.
`CCOC(=O)C1CCCc2c1[nH]c1ccc(Cl)cc21` (centres undefined) gave PKD1 inh 5, RGS16-Gao 112, HSV replic up inactive and HSV replic up primary fold 0.85.
COc1ccc(CNC(=O)c2cccs2)cc1 was read as PKD1 inh 12, GALR2 agonist -1.2, RGS16-Gao 92, HSV replic up inactive, Insulin prom inh -8, Insulin prom inh cell count 86 and HSV replic up primary fold 0.99.
Screening Cc1ccccc1CN(C)CC(=O)Nc1ccccc1Oc1ccccc1 returned PKD1 inh -6, GALR2 agonist 0.0, RGS16-Gao 112, HSV replic up inactive and HSV replic up primary fold 1.1.
`NC(=O)CCSC(=S)N1CCOCC1` gave PKD1 inh 2, RGS16-Gao 94, HSV replic up inactive, Insulin prom inh -6, Insulin prom inh cell count 77 and HSV replic up primary fold 1.3.
For COc1ccc(CNC(=O)C(NC(C)=O)C(=O)Nc2ccc(OC)cc2)cc1 (centres undefined) the results were PKD1 inh 3, GALR2 agonist -1.2, RGS16-Gao 102, Insulin prom inh 30 and Insulin prom inh cell count 80.
`COC(=O)c1cc(Nc2cc(C)nc3ncnn23)cc(C(=O)OC)c1` gave PKD1 inh 5, GALR2 agonist 0.7, RGS16-Gao 102, Insulin prom inh -15 and Insulin prom inh cell count 100.
For COc1ccc(OC)c(-n2cnc3cc(C(=O)NCCCN4CCOCC4)ccc32)c1 the results were PKD1 inh 4, GALR2 agonist -1.9, RGS16-Gao 124, HSV replic up inactive, Insulin prom inh -55, Insulin prom inh cell count 92 and HSV replic up primary fold 1.
Screening O=C1c2ccccc2C(=O)N1CCCc1c[nH]c2ccc(Cl)cc12 returned PKD1 inh 2, GALR2 agonist -1.1, RGS16-Gao 103, HSV replic up inactive, Insulin prom inh -106, Insulin prom inh cell count 143 and HSV replic up primary fold 0.94.
`O=C(CCN1CCc2ccccc21)c1ccc2c(c1)OCCO2` gave PKD1 inh -6, GALR2 agonist -1.2, RGS16-Gao 95, HSV replic up inactive, Insulin prom inh 25, Insulin prom inh cell count 135 and HSV replic up primary fold 1.1.
C(=N\N1CCOCC1)/c1nc(-c2ccccc2)n2ccccc12 was read as PKD1 inh -1, RGS16-Gao 98, HSV replic up inactive and HSV replic up primary fold 1.
Screening Cn1cc(S(=O)(=O)Nc2cccc(F)c2)c(=O)n(C)c1=O returned PKD1 inh -5, GALR2 agonist -2.2, RGS16-Gao 101, HSV replic up inactive and HSV replic up primary fold 0.88.
Screening O=C(Nc1cccc(NC(=O)c2cccs2)c1)c1ccc2c(c1)OCCO2 returned PKD1 inh -8, RGS16-Gao 106, HSV replic up inactive, Insulin prom inh 35, Insulin prom inh cell count 72 and HSV replic up primary fold 0.9.
`C/C(CCC1CC(C)OC1=O)=N/Nc1nc(-c2ccccc2)cs1` (centres undefined) gave PKD1 inh 7, GALR2 agonist -0.8, RGS16-Gao 51, HSV replic up inactive and HSV replic up primary fold 1.1.
`Cc1nn(-c2ccccc2)c(N2CCCC2)c1/C=N/n1cnc2scc(-c3ccccc3)c2c1=O` gave PKD1 inh -7, GALR2 agonist -1.6, RGS16-Gao 101 and HSV replic up inconclusive.
CSC1=N/C(=C\c2ccc(F)cc2)C(=O)S1 was read as PKD1 inh 3, GALR2 agonist -1.7, RGS16-Gao 101, HSV replic up inactive, Insulin prom inh -20, Insulin prom inh cell count 35 and HSV replic up primary fold 1.
For CCOc1cc(NC(=O)c2ccco2)c(OCC)cc1NC(=O)Cc1ccc(OC)c(OC)c1 the results were PKD1 inh 6, GALR2 agonist 0.9, RGS16-Gao 110, HSV replic up inactive, Insulin prom inh -69, Insulin prom inh cell count 86 and HSV replic up primary fold 0.71.
COc1ccccc1CNc1ccc(N2CCCCC2)cc1 was read as PKD1 inh -5, GALR2 agonist -3.3, RGS16-Gao 75, HSV replic up inactive, Insulin prom inh -70, Insulin prom inh cell count 126 and HSV replic up primary fold 0.93.
For CC(C)NC(=O)CSc1nnc(-c2ccc(S(=O)(=O)N3CCCC3)cc2)n1CC1CCCO1 (centres undefined) the results were PKD1 inh -4, GALR2 agonist -1.4, RGS16-Gao 104, HSV replic up inactive and HSV replic up primary fold 0.85.
Screening COC(=O)c1ccccc1NC(=S)NC(=O)c1ccc2ccccc2c1 returned PKD1 inh -5, GALR2 agonist -0.6, RGS16-Gao 107, HSV replic up inactive, Insulin prom inh 11, Insulin prom inh cell count 95 and HSV replic up primary fold 0.84.
O=C(Nc1ccccc1C(=O)NCCCn1ccnc1)c1ccccc1 was read as PKD1 inh 15, GALR2 agonist -1.8, RGS16-Gao 89, HSV replic up inactive, Insulin prom inh 59, Insulin prom inh cell count 47 and HSV replic up primary fold 1.
Screening Cc1ccc(/C=N/Nc2nnc(Cl)c3ccccc23)cc1 returned PKD1 inh -8, GALR2 agonist -3.1, RGS16-Gao 77, HSV replic up inactive, Insulin prom inh 19, Insulin prom inh cell count 115 and HSV replic up primary fold 0.95.
For CCOC(=O)c1ccc(N2Cc3ccccc3C2=NC(=O)c2cccs2)cc1 the results were PKD1 inh -9, GALR2 agonist 0.3, RGS16-Gao 103, HSV replic up inactive and HSV replic up primary fold 0.9.
`COc1nc(-c2ccccc2)ccc1-c1noc(-c2cccnc2)n1` gave PKD1 inh 3, GALR2 agonist -2.5, RGS16-Gao 102, HSV replic up inactive, Insulin prom inh -100, Insulin prom inh cell count 93 and HSV replic up primary fold 1.
COc1ccc(N2CCN(c3oc(-c4ccc(OC)c(OC)c4)nc3C#N)CC2)cc1 was read as PKD1 inh -5, GALR2 agonist -4.3, RGS16-Gao 99, HSV replic up inactive, Insulin prom inh 7, Insulin prom inh cell count 59 and HSV replic up primary fold 1.
Screening CCOC(=O)c1c(C)nc(-c2ccccc2)nc1N returned PKD1 inh -3, GALR2 agonist -4.3, RGS16-Gao 101, HSV replic up inactive, Insulin prom inh -42, Insulin prom inh cell count 103 and HSV replic up primary fold 0.99.
`COc1cc(CN(C)Cc2cc(=O)n3ccsc3n2)ccc1OC(F)F` gave PKD1 inh -6, RGS16-Gao 98, HSV replic up inactive and HSV replic up primary fold 1.1.
`O=C(CCCN1CCC(O)(c2ccc(Cl)cc2)CC1)c1ccc(F)cc1` gave PKD1 inh -5, GALR2 agonist -0.2, RGS16-Gao 104&97, HSV replic up inactive, Insulin prom inh 41, Insulin prom inh cell count 65 and HSV replic up primary fold 0.95&0.68.
For C=CCOC(=O)C1=C(C)N(C)C(=O)NC1c1cc2c(cc1Br)OCO2 (centres undefined) the results were PKD1 inh 1, GALR2 agonist -1.9, RGS16-Gao 98, HSV replic up inactive, Insulin prom inh -22, Insulin prom inh cell count 112 and HSV replic up primary fold 0.97.
For O=C(NC12CC3CC(CC(C3)C1)C2)C1CC(=O)N(c2ccccc2)C1 (centres undefined) the results were PKD1 inh -8, GALR2 agonist -1.7, RGS16-Gao 99, HSV replic up inactive, Insulin prom inh -53, Insulin prom inh cell count 101 and HSV replic up primary fold 0.8.
Nc1c(Cl)cc(S(N)(=O)=O)cc1S(N)(=O)=O was read as RGS16-Gao 98, HSV replic up inactive and HSV replic up primary fold 0.92.
C#CCn1c(=NC(=O)c2ccc(S(=O)(=O)N3CCCc4ccccc43)cc2)sc2cc(S(N)(=O)=O)ccc21 was read as PKD1 inh -4, GALR2 agonist 0.2, RGS16-Gao 100, HSV replic up inactive, Insulin prom inh -68, Insulin prom inh cell count 92 and HSV replic up primary fold 0.9.
`Cc1nc2nc(SCC(=O)N3CCOCC3)nn2c(C)c1Cc1c(F)cccc1Cl` gave PKD1 inh -2, GALR2 agonist 0.2, RGS16-Gao 102, HSV replic up inactive and HSV replic up primary fold 0.87.
`CC1CCC(Nc2nnnn2-c2ccccc2)CC1` (centres undefined) gave PKD1 inh 5, GALR2 agonist -2.5, RGS16-Gao 100, HSV replic up inactive and HSV replic up primary fold 0.99.

An excerpt from above in order of number of heavy atoms, largest number first:
C#CCn1c(=NC(=O)c2ccc(S(=O)(=O)N3CCCc4ccccc43)cc2)sc2cc(S(N)(=O)=O)ccc21 was read as PKD1 inh -4, GALR2 agonist 0.2, RGS16-Gao 100, HSV replic up inactive, Insulin prom inh -68, Insulin prom inh cell count 92 and HSV replic up primary fold 0.9.
COc1ccc(N2CCN(c3oc(-c4ccc(OC)c(OC)c4)nc3C#N)CC2)cc1 was read as PKD1 inh -5, GALR2 agonist -4.3, RGS16-Gao 99, HSV replic up inactive, Insulin prom inh 7, Insulin prom inh cell count 59 and HSV replic up primary fold 1.
For CCOC(=O)c1ccc(N2Cc3ccccc3C2=NC(=O)c2cccs2)cc1 the results were PKD1 inh -9, GALR2 agonist 0.3, RGS16-Gao 103, HSV replic up inactive and HSV replic up primary fold 0.9.
Nc1c(Cl)cc(S(N)(=O)=O)cc1S(N)(=O)=O was read as RGS16-Gao 98, HSV replic up inactive and HSV replic up primary fold 0.92.

Continued.
Screening CN(C)c1ccc(NC(=O)Nc2ccc3snnc3c2)cc1 returned PKD1 inh -14, GALR2 agonist -2.4, RGS16-Gao 98, HSV replic up inactive and HSV replic up primary fold 1.1.
Screening Cc1ccc(NC(=S)N2CCN(C(=O)C3CCCO3)CC2)cc1 (centres undefined) returned PKD1 inh -10, GALR2 agonist 0.2, RGS16-Gao 184, Insulin prom inh 31 and Insulin prom inh cell count 104.
`O=C(C[n+]1ccccc1)c1ccc(-c2ccccc2)cc1` gave PKD1 inh -1, RGS16-Gao 111, HSV replic up inactive, Insulin prom inh -50, Insulin prom inh cell count 161 and HSV replic up primary fold 0.91.
Screening COc1ccc(C(=O)Cn2nnc(-c3ccccc3NC(=O)C(F)(F)F)n2)cc1 returned PKD1 inh -3, GALR2 agonist -2.0, RGS16-Gao 53, HSV replic up inactive, Insulin prom inh 31, Insulin prom inh cell count 129 and HSV replic up primary fold 1.
CCOC(=O)c1cnc2ccc(OC)cc2c1Nc1ccc2c(c1)OCCO2 was read as PKD1 inh 12, GALR2 agonist -0.6, RGS16-Gao 110, HSV replic up inactive, Insulin prom inh 7, Insulin prom inh cell count 82 and HSV replic up primary fold 0.94.
CCCC(=O)Nc1cc(-c2nc3ncccc3o2)ccc1C was read as PKD1 inh -12, GALR2 agonist -3.9, RGS16-Gao 92, HSV replic up inactive, Insulin prom inh 69, Insulin prom inh cell count 95 and HSV replic up primary fold 1.
Screening O=C1c2ccccc2C(Nc2ccc3c(c2)OCCO3)N1Cc1ccc2c(c1)OCO2 (centres undefined) returned PKD1 inh -16, GALR2 agonist -0.3, RGS16-Gao 96, HSV replic up inactive and HSV replic up primary fold 0.8.
`CC(=O)c1cnc(Nc2ccccc2)s1` gave PKD1 inh -2, GALR2 agonist -1.0, RGS16-Gao 101, HSV replic up inactive, Insulin prom inh -18, Insulin prom inh cell count 81 and HSV replic up primary fold 0.79.
CCOc1ccccc1N=CC1=C(O)CC(c2ccccc2)CC1=O (centres undefined) was read as PKD1 inh -9, RGS16-Gao 95, HSV replic up inactive, Insulin prom inh -79, Insulin prom inh cell count 124 and HSV replic up primary fold 0.95.
For Cc1ccc(C(=O)N/N=C\c2ccc(-c3ccc(Cl)c(Cl)c3)o2)cn1 the results were RGS16-Gao 101, HSV replic up inactive and HSV replic up primary fold 0.81.
For COc1ccccc1C(=O)Nc1ccccc1N1CCN(S(C)(=O)=O)CC1 the results were PKD1 inh -7, GALR2 agonist -3.0, RGS16-Gao 108, HSV replic up inactive, Insulin prom inh -40, Insulin prom inh cell count 76 and HSV replic up primary fold 0.94.
CCOc1cc(/C=N\NC(=O)OC)ccc1OC(=O)c1ccco1 was read as PKD1 inh -8, RGS16-Gao 92, HSV replic up inactive and HSV replic up primary fold 0.94.
`CN(CC(=O)NC1CCCCCC1)S(=O)(=O)c1cnc[nH]1` gave PKD1 inh -2, RGS16-Gao 100, HSV replic up inactive, Insulin prom inh 35, Insulin prom inh cell count 115 and HSV replic up primary fold 0.99.
